Screening results deposited in PubChem by National Center for Advancing Translational Sciences (NCATS).
2A firefly: lowers the firefly signal of an FMDV 2A StopGo reporter; HEK cells with a luciferase reporter of 2A StopGo recoding; Potency, µM (series often up to 57.5 µM), without a hit: at the highest dose signal change, negative = less light; 120,000 compounds, 0.23% hits; AID 1745856; active = well fitted falling curve with a large enough effect; inconclusive = small, poorly fitted or top-dose-only effect; inactive = no such curve, though single readings can be large or run the other way; also: nearly all actives have a fitted effect of over 60% in size; overnight with compound
2A Renilla: lowers the Renilla signal of an FMDV 2A StopGo reporter; AID 1745857; 120,000 compounds, 0.32% hits; Potency, µM (titrated, usually from 57.5 µM), for inactives: at the highest dose signal change, negative = less light; HEK cells with a luciferase reporter of 2A StopGo recoding; active means well fitted falling curve with a large enough effect; inconclusive means small, poorly fitted or top-dose-only effect; inactive means no such curve, though single readings can be large or run the other way; also: nearly all actives have a fitted effect of over 55% in size; overnight with compound
Numbers without * were called inactive; ? = inconclusive; [ ] = another dose, or the depositor's remark. % is scaled to controls: 0 for no effect and ±100 for the full control effect; potency is read from the fitted curve at half-maximal effect. Some of the compounds tested. The share of hits here may be higher or lower than overall.

1	CCN(CC)S(=O)(=O)c1ccc(C(=O)NCCSc2c(-c3ccccc3)[nH]c3ccccc23)cc1
2	O=C(Nc1nc(C23CC4CC(CC(C4)C2)C3)cs1)c1ccncc1
3	CCCCOc1ccc(C(=O)N2CC(=O)Nc3ccc(Br)cc3C2c2ccc(F)cc2)cc1 (stereo not given)
4	CN1C(C(=O)c2ccccc2)=C(NC(=O)c2ccccc2Br)c2ccccc2S1(=O)=O
5	CC(Oc1ccccc1F)C(=O)Nc1cccc2cccnc12 (stereo not given)
6	Cc1ccc(-n2nc(C(=O)N(C)c3ccc(C)c(C)c3)c3c4ccccc4n(C)c3c2=O)cc1
7	Cc1ccc(C)c(CN2C(=O)C(O)(c3c(C)[nH]c4ccccc34)c3ccccc32)c1 (stereo not given)
8	Cc1c(Cl)cccc1Nc1nn2c(=O)c3ccccc3nc2s1
Compound | 1 | 2 | 3 | 4 | 5 | 6 | 7 | 8
2A firefly | -28% | 14µM* | -30% | 2% | 31%[activator] | -5% | -22% | 110%[activator]
2A Renilla | ? | 8.9µM* | 0% | 34%[activator] | 12% | -7% | -7% | -2%

9	O=C(NCc1cccc(Cl)c1)c1cccn1-c1nnc(N2CCCC2)s1
10	COc1ccc(NC(=O)c2nnn(CC(=O)Nc3cccc(C)c3C)c2N)c(OC)c1
11	Cc1ccc(S(=O)(=O)N(CC(=O)Nc2ccc3c(c2)OCO3)c2cc(Cl)cc(Cl)c2)cc1
12	Cc1nc2c(-c3ccccc3)c(C)nn2c(C)c1CCC(=O)NCc1ccc(F)cc1
13	CC(C)NC(=O)c1cc(Br)c(Br)s1
14	O=C(O)CCCSc1ccc(Cl)cc1
15	COc1ccc(/C=C/C(=O)c2ccc(Br)cc2)cc1
16	Cc1ccc(NC(=O)c2ccc3nc[nH]c3c2)cc1C
Compound | 9 | 10 | 11 | 12 | 13 | 14 | 15 | 16
2A firefly | -9% | 4% | -10% | -19% | 0% | 15% | 0% | 115%[activator]
2A Renilla | 40%[activator] | -12% | 11% | -9% | 7% | 14% | 14% | 9%

Exported bar-delimited: 2 of the compounds above.
item | Molecule | 2A firefly | 2A Renilla
15 | COc1ccc(/C=C/C(=O)c2ccc(Br)cc2)cc1 | 0% | 14%
16 | Cc1ccc(NC(=O)c2ccc3nc[nH]c3c2)cc1C | 115%[activator] | 9%

An excerpt from above in order of SMILES length, high to low.
11	Cc1ccc(S(=O)(=O)N(CC(=O)Nc2ccc3c(c2)OCO3)c2cc(Cl)cc(Cl)c2)cc1
9	O=C(NCc1cccc(Cl)c1)c1cccn1-c1nnc(N2CCCC2)s1
15	COc1ccc(/C=C/C(=O)c2ccc(Br)cc2)cc1
14	O=C(O)CCCSc1ccc(Cl)cc1
Compound | 11 | 9 | 15 | 14
2A firefly | -10% | -9% | 0% | 15%
2A Renilla | 11% | 40%[activator] | 14% | 14%

Record cards, from the list above. Screens in order: 2A firefly	2A Renilla
`O=C(O)CCCSc1ccc(Cl)cc1` is listed as 15%	14%
`O=C(NCc1cccc(Cl)c1)c1cccn1-c1nnc(N2CCCC2)s1` is listed as -9%	40%[activator]
`Cc1ccc(NC(=O)c2ccc3nc[nH]c3c2)cc1C` is listed as 115%[activator]	9%

Later entries:
17	CCCN(CCC)c1nc(-c2ccncc2)nc2ccccc12
18	Cc1ccc(NC(=O)C2CCC(CNS(=O)(=O)c3ccc4c(c3)CCCC(=O)N4)CC2)c(C)c1 (stereo not given)
19	CSc1ccc(C(=O)O)s1
20	CCOC(=O)C1=C(C)NC(C)=C(C(=O)OC)C1c1cccc(Cl)c1Cl (stereo not given)
21	CC1=CC(C)C(/C=N/NC(N)=O)C(C)C1 (stereo not given)
22	O=c1[nH]c2ccccc2c(=O)n1CCCl
23	Cc1cc(C)cc(N(CC(=O)Nc2cccc(C)c2C)S(=O)(=O)c2c(C)[nH]c(=O)[nH]c2=O)c1
24	CCN(c1ccccc1)S(=O)(=O)c1cc(-c2onc(C)c2C)ccc1OC
Compound | 17 | 18 | 19 | 20 | 21 | 22 | 23 | 24
2A firefly | ? | -29% | -8% | -1%[11.5 µM] | -1% | -1%[11.5 µM] | -10% | 21%
2A Renilla | ? | -26% | 5% | -4% | -1% | -6% | -5% | 178%[activator]

25	Cc1cccn2c(=O)c(/C=C(\C#N)c3nc4ccccc4n3C)c(Oc3ccc(Br)cc3)nc12
26	CCOC(=O)C1CCCN(c2c(C(=O)c3ccccc3)cnc3ccc(F)cc23)C1 (stereo not given)
27	Cc1cc(C)cc(NC(=O)c2cccc3c2C(=O)N(C2CCCCC2)C3)c1
28	COc1ccc(CNC(=O)c2sc3nc4n(c(=O)c3c2C)CCCC4)cc1
29	Cc1cccc(Cn2c(SCc3ccc(C(=O)NCc4cccs4)cc3)nc3ccncc32)c1
30	COc1ccc(C)cc1NS(=O)(=O)c1cc(Br)cc2c1N(C(C)=O)C(C)C2 (stereo not given)
31	O=C(CSc1nc(-c2ccccc2)nc2c1Cc1ccccc1O2)N1CCCCC1
32	Cc1ccc(C)c(NC(NC(=O)c2ccc(Br)cc2)C(Cl)(Cl)Cl)c1 (stereo not given)
Compound | 25 | 26 | 27 | 28 | 29 | 30 | 31 | 32
2A firefly | -7% | 16% | -15% | 41%[activator] | -4% | 6% | 14% | ?
2A Renilla | -12% | 14% | -10% | 0% | 37%[activator] | 309%[activator] | 12% | ?

33	Cc1ccc2oc(-c3cccc(NC(=O)c4cccs4)c3)nc2c1
34	Cc1ccc(S(=O)(=O)NCCS(=O)(=O)N2CCN(c3ccccc3)CC2)cc1
35	CCc1nnc(NC(=O)c2cc(-c3ccccc3)nc3ccccc23)s1
36	COc1cccc(CN(C(=O)c2cccc(C)c2)C2CCS(=O)(=O)C2)c1 (stereo not given)
37	Cc1cc2c(cc1S(=O)(=O)N1CCC(C(=O)N3CCCC3)CC1)OCC(=O)N2
38	O=C(Cn1c(=O)n(Cc2ccc(Cl)cc2)c(=O)c2cccnc21)Nc1ccccc1C(F)(F)F
39	CC(=O)N1CCC(NC(=O)CSc2ncc(-c3ccccc3)o2)CC1
40	COc1cc(CCC(=O)NCc2cccs2)cc(OC)c1OC
Compound | 33 | 34 | 35 | 36 | 37 | 38 | 39 | 40
2A firefly | 134%[activator] | -18% | -3% | 18% | 2% | -3% | 7% | 19%
2A Renilla | 6% | 62%[activator] | -1% | 5% | 8% | -2% | -12% | 18%

41	Cc1nccc(CNc2ncc(C(N)=O)cc2Cl)n1
42	CNc1snc(C)c1C(=O)N(C)CCOc1ccccc1Cl
43	CC(C)c1nnc(NC(=O)CCS(=O)(=O)Cc2ccccc2)s1
44	Cc1cccc(NC(NC(=O)C(C)C)C(Cl)(Cl)Cl)c1 (stereo not given)
45	COc1ccc(C(C)=O)cc1CC(=O)Nc1cc(C)ccc1C
46	CCN(CC)CCCNC(=O)c1nn(C)c2c1CS(=O)(=O)c1ccccc1-2
47	COc1ccc(C23CC4CC(CC(C(=O)O)(C4)C2)C3)cc1
48	Cc1ccc(Nc2c3c(nc4ccccc24)CCC3)c(Br)c1
Compound | 41 | 42 | 43 | 44 | 45 | 46 | 47 | 48
2A firefly | -1% | -24% | -1% | 0% | 4% | -10% | 50%[activator] | 6%
2A Renilla | 2% | ? | -6% | 1% | 8% | 1% | 29% | 3%

49	CC12CC3(C)CC(C(=O)O)(C1)CC(C(=O)O)(C2)C3
50	CC(C(=O)c1ccccc1)C1(O)C(=O)Nc2ccc(Br)cc21 (stereo not given)
51	COc1ccccc1CNC(=O)CN(c1ccc(C)cc1)S(=O)(=O)c1c(C)noc1C
52	CC(CC(=O)NCCc1ccccn1)c1ccccc1 (stereo not given)
53	Cc1ccnc(NC(=O)c2c(C)oc3ncn(CC(C)C)c(=O)c23)c1
54	Cc1ccc(C(=O)N2CCN(CCc3ccncc3)CC2)cc1
55	COc1ccc2c(c1)c(C(C(=O)O)N1CCN(c3ccc(C)cc3C)CC1)cn2CCC(=O)O (stereo not given)
56	CC(Oc1ccccc1Cl)C(=O)NC(c1ccccc1)c1ccccc1 (stereo not given)
Compound | 49 | 50 | 51 | 52 | 53 | 54 | 55 | 56
2A firefly | 2% | 0% | -14% | 62%[activator] | 284%[activator] | -4% | -6% | -1%
2A Renilla | 7% | -3% | 10% | 4% | 49%[activator] | 4% | -3% | 0%

57	CCN(CC)c1nn2c(=O)c(C(=O)NCc3ccc(N(C)C)cc3)cnc2s1
58	O=C1CC(c2nnc(Cc3ccc(Cl)cc3)o2)CN1c1ccccc1 (stereo not given)
59	Cc1ccc(CNCCN2CCCC2)cc1C
60	Cc1ccc2[nH]c(C(=O)Nc3c(C)n(C)n(-c4ccccc4)c3=O)cc2c1
61	Cc1ccc(CNc2cc(C)nc3nc(-c4ccc(C)cc4)nn23)cc1
62	COc1ccc(CCNC(=O)CCc2c(C)nc3cc(-c4ccccc4)nn3c2C)cc1OC
63	COC(=O)C1=C(C)OC(N)=C(C#N)C1c1ccc(C(C)C)cc1 (stereo not given)
64	CC(=O)N1CCC(C(=O)N(C)CC(=O)Nc2ccccc2C(F)(F)F)CC1
Compound | 57 | 58 | 59 | 60 | 61 | 62 | 63 | 64
2A firefly | -5% | -11% | -17% | -5% | 196%[activator] | ? | 0% | -3%
2A Renilla | -7% | -10% | 1% | -14% | -9% | -5% | 0% | 8%

65	CC(C)C(=O)/C=C(\N)C(Cl)(Cl)Cl
66	COc1ccc(-c2cn3nc(N4CCC(C(=O)Nc5cc(Cl)ccc5C)CC4)sc3n2)cc1
67	COc1cccc(-c2nc(CS(=O)(=O)CC(=O)Nc3cccc(C(F)(F)F)c3)c(C)o2)c1
68	Cc1cc(C(=O)COc2ccc3ccc(=O)oc3c2)c(C)n1C1CC1
69	CCCN(C(=O)Cc1c(C(=O)O)[nH]c2ccc(Cl)cc12)c1ccc(OCC)cc1
70	O=C1CCC/C(=N/NS(=O)(=O)c2ccc(Br)cc2)C1
71	CCCCn1c(=O)[nH]c(=O)c2c1nc(CSc1nnnn1C)n2CCC
72	COc1cccc(OCC(=O)NCc2cccc(CN3CCCC3)c2)c1
Compound | 65 | 66 | 67 | 68 | 69 | 70 | 71 | 72
2A firefly | -5% | 19% | -20% | 95%[activator] | -13% | -12% | -8% | -2%
2A Renilla | -2% | -16% | 63%[activator] | 4% | -11% | 27% | 1% | -5%

73	Cc1ccc(-c2nnc(C3CCN(S(=O)(=O)c4ccc(C)c(C)c4)CC3)o2)cc1
74	CC1CCN(S(=O)(=O)c2ccc3c(c2)CCN3C(=O)Nc2cccc(Br)c2)CC1
75	CCCn1nc(C(=O)Nc2cc(C(=O)OC)ccc2C)c2ccccc2c1=O
76	CCCCC(=O)Nc1ccc2oc(-c3ccc(Cl)cc3)nc2c1
77	COc1ccc(-n2ccn(CC(=O)Nc3ccccc3C)c2=O)cc1
78	CCC(C)n1c(SCc2ccc(F)cc2Cl)nc2ccsc2c1=O (stereo not given)
79	Cc1ccccc1OCc1nc(C#N)c(NCCN2CCOCC2)o1
80	N#CCCNC12CC3CC(CC(C3)C1)C2
Compound | 73 | 74 | 75 | 76 | 77 | 78 | 79 | 80
2A firefly | 2% | -19% | 0% | 147%[activator] | 12% | -4% | 15% | ?
2A Renilla | 4% | ? | -4% | 6% | 4% | 1% | 1% | -7%

81	COc1cc(C(=O)OC2CCCCC2=O)ccc1OCc1ccccc1Cl (stereo not given)
82	O=C(CCN1CCN(c2cnccn2)CC1)Nc1ccccc1F
83	COc1ccccc1Nc1nc(-c2ccc(CC(=O)N3CCOCC3)s2)cs1
84	Cc1c(-c2ccccc2)nc2ccccc2c1C(=O)NC(C)C
85	O=C(CCC(=O)c1ccc(Cl)cc1)OCC(=O)c1cccc([N+](=O)[O-])c1
86	Cc1ccc2c(c1)N(CC(=O)c1cn(C)c3ccccc13)C(=O)CO2
87	O=C(Nc1ccccc1F)C1Sc2nnc(-c3ccccc3)n2NC12CCCCC2 (stereo not given)
88	CCSc1ncc(Cl)c(C(=O)Nc2c(C(=O)Nc3cccc(C)c3)oc3ccccc23)n1
Compound | 81 | 82 | 83 | 84 | 85 | 86 | 87 | 88
2A firefly | 100%[activator] | 11% | 0% | 2% | -2% | -16% | 8% | 0%
2A Renilla | 7% | -2% | -8% | 6% | 2% | -8% | 124%[activator] | -2%
